# Screening data from PubChem.
# MT1-MMP reporter: inhibitors of MT1-MMP promoter transcription, cell-based, luciferase reporter, luminescence (AID 618). MT1-MMP promoter luciferase reporter cells, luminescence. calls from a first round at 10 µM; hits with a dose series show EC50 in µM. 87,000 tested, 0.62% active;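 active = over half of the reporter light lost at 10 µM or EC50 under 50 µM; inactive = the rest and hits that failed the dose series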;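 note: actives suppress MT1-MMP promoter-driven transcription so potencies describe inhibitors; HT1080 fibrosarcoma cells; overnight exposure; toxic or luciferase-blocking compounds were not removed from the actives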
# WNV protease inh: inhibitors of West Nile virus NS2B-NS3 protease; z-score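 (tested at a level between 10 and 100 µM)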; AID 577; 65,000 tested, 0.18% active; WNV NS2B-NS3 protease, fluorogenic substrate Ex360/Em465; stronger effect = lower value; P06935;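 active = z-score at -3 or under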;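 note: score is relative to mean and spread of the compound wells of a plate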
# Target sequence (P06935 1371-1501 limits assumed): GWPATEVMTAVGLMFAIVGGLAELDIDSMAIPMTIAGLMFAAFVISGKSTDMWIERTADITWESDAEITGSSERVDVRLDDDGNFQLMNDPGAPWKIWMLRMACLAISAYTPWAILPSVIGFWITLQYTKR
# Target sequence (P06935 1502-1679 limits assumed): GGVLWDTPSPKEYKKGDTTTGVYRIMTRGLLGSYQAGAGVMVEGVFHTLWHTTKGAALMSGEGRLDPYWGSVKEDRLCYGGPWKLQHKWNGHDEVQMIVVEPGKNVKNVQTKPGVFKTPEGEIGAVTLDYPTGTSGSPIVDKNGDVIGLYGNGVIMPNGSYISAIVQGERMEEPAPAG
# Hsc70 ATP site: Hsc70 inhibitors, probe displacement, primary screen, biochemical, fluorescence polarization (AID 568); Hsc70 fluorescence polarization, probe displacement; higher % means a stronger effect; strong numbers were not always called active; displacement, % at 20 µM; hits with a dose series show IC50 in µM; 83,000 tested, under 10 active;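 active = displacement above 50% without optical interference and an IC50 on retest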;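 note: ATPase domain with a fluorescein-tagged ATP probe; 0% = vehicle and 100% = excess ADP; read after one hour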
# * hit, by the source's call; i = inactive; . = not tested or not shown; + = active, no number. Not a hit list (roughly 0.77% active in at least one column).
SMILES,MT1-MMP reporter,WNV protease inh,Hsc70 ATP site
CCOc1ccc(NC(=O)CNC(=O)c2ccc(OC)c(OC)c2)cc1,i,-0.15,2.4%
O=C(CSc1nnnn1C1CCCCC1)NCCc1ccccc1,i,-0.69,-6.0%
Cn1c2c(c(=O)[nH]c1=O)C(NC(=O)c1ccco1)(C(F)(F)F)C(=O)N2 (stereo unspecified),i,0.54,5.9%
CCO/C=C1\C(=O)N(CC)c2ccccc21,i,.,-0.8%
CCOC(=O)CSc1nnc(C)c(=O)[nH]1,i,-0.78,-5.2%
CCN(CC)S(=O)(=O)c1cccc(-c2nnc(SCC(=O)NCCC3=CCCCC3)n2N)c1,i,0.5,-6.2%
CC(=O)n1nc(-c2ccco2)nc1SCc1ccccc1,i,1.1,0.0%
O=C(CN1C(=O)COc2ccccc21)Nc1ccc(F)cc1,i,1.4,5.0%
Cc1ccc(NC(=O)c2ccc(S(=O)(=O)N3CCCCC3)cc2)cc1,i,.,-0.5%
CCC(Oc1ccccc1)C(=O)Nc1cc(C)on1 (stereo unspecified),i,0.004,-4.8%
c1ccc2c(c1)oc1c(NCC3CCCO3)ncnc12 (stereo unspecified),i,.,0.5%
O=C(O)CSc1nnc(-c2ccncc2)n1CCc1ccccc1,i,-0.9,0.2%
COc1ccc(/C=N\n2nnc3ccccc32)cc1,+,0.42,-4.8%
Cc1cccc(CS(=O)(=O)Cc2ccc(C(=O)NCc3ccco3)o2)c1,i,1.1,-1.0%
Cc1ccc(CNC(=O)CCNS(=O)(=O)c2cccc3nonc23)cc1,i,.,1.5%
COc1ccc(-c2nnc3ccc(SCC(=O)N4CCCC4)nn23)cc1,i,-0.13,-0.3%
O=C1C2CC=CCC2C(=O)N1Cc1ccccc1 (stereo unspecified),i,.,1.3%
CCc1nc2ccc(C(=O)NCc3ccco3)cc2nc1CC,i,-0.37,-4.1%
O=C(O)C1C2C=CC(O2)C1C(=O)NCc1ccc(Cl)cc1 (stereo unspecified),i,0.47,-3.0%
CCOC(=O)c1cc2c(=O)n(C)c3ccccc3c2s1,i,-1.1,0.8%

# Reformatted with each value named: 3 of the compounds above.
Molecule: CCOC(=O)CSc1nnc(C)c(=O)[nH]1
  MT1-MMP reporter: i
  WNV protease inh: -0.78
  Hsc70 ATP site: -5.2%
Molecule: CCN(CC)S(=O)(=O)c1cccc(-c2nnc(SCC(=O)NCCC3=CCCCC3)n2N)c1
  MT1-MMP reporter: i
  WNV protease inh: 0.5
  Hsc70 ATP site: -6.2%
Molecule: CC(=O)n1nc(-c2ccco2)nc1SCc1ccccc1
  MT1-MMP reporter: i
  WNV protease inh: 1.1
  Hsc70 ATP site: 0.0%

# 3 of the compounds above, with each value named:
CCOc1ccc(NC(=O)CNC(=O)c2ccc(OC)c(OC)c2)cc1
- MT1-MMP reporter: i
- WNV protease inh: -0.15
- Hsc70 ATP site: 2.4%

O=C(CSc1nnnn1C1CCCCC1)NCCc1ccccc1
- MT1-MMP reporter: i
- WNV protease inh: -0.69
- Hsc70 ATP site: -6.0%

Cn1c2c(c(=O)[nH]c1=O)C(NC(=O)c1ccco1)(C(F)(F)F)C(=O)N2 (stereo unspecified)
- MT1-MMP reporter: i
- WNV protease inh: 0.54
- Hsc70 ATP site: 5.9%

# The results go on.
SMILES,MT1-MMP reporter,WNV protease inh,Hsc70 ATP site
O=C(NC1CCCC1)C(c1cccnc1)N(C(=O)c1csnn1)C1CC1 (stereo unspecified),i,2.9,-1.7%
Cc1nn(-c2ccccn2)c(C)c1Oc1ccccc1O,i,0.03,1.8%
c1ccc(-c2nccc(-c3ccc(-n4cnc5ccccc54)cc3)n2)cc1,i,.,3.4%
c1ccc(CNc2ncnc3ccccc23)cc1,i,0.23,-3.6%
CCN(CC)c1ccc(NC(=O)CN2C(=O)CSc3ncccc32)c(C)c1,i,-1.3,-0.9%
CCS(=O)(=O)N1CCc2cc(OC)c(OC)cc2C1,i,0.55,5.7%
Cc1[nH]c(=O)[nH]c(=O)c1NC(=O)CSc1ncccc1-c1nc2ccccc2[nH]1,i,0.77,-2.9%
Cc1cc(C)n(-c2nc3c(c(=O)n(C)c(=O)n3C)n2Cc2cccc(Br)c2)n1,i,0.29,3.5%
Cc1ccc(Cl)cc1N1CCN(C(=O)C2CCN(c3nnc(-n4cccc4)s3)CC2)CC1,i,-1.1,-7.5%
Cc1ccc(-c2noc(CCC(=O)N3CCN(c4cccc(C(F)(F)F)c4)CC3)n2)cc1,i,-0.41,5.7%
Cc1cc(C)cc(N(CC(=O)NCC2CCCO2)C(=O)CN2C(=O)COc3ccccc32)c1 (stereo unspecified),i,-0.63,-1.0%
Cc1ccc(NC(=O)N2CCC(C(=O)NCCC3=CCCCC3)CC2)cc1,i,1.5,2.7%
Cc1onc(-c2ccccc2Cl)c1C(=O)Nc1cccnc1,i,-0.05,7.9%
COc1cccc(-c2nc(N3CCN(Cc4ccccc4)CC3)c3ccccc3n2)c1O,i,0.43,-3.3%
CC(C)OC(=O)c1cc(=O)[nH]c2ccccc12,i,-0.17,2.9%
COc1cccc(CC(=O)Nn2c(C)nc3ccccc3c2=O)c1,i,-0.89,5.7%
CSc1ccc(S(=O)(=O)NCc2ccccc2Cl)cc1,i,0.17,8.5%
CCc1nnc(NC(=O)c2cc3c(s2)CCCCC3)s1,i,-0.99,-5.4%
N#CC(c1ccc(O)cc1)N1CCOCC1 (stereo unspecified),i,.,0.3%
CCN(CC)CCN1C(=O)C(=O)/C(=C(/O)c2cccc(OC)c2)C1c1ccccn1 (stereo unspecified),i,-0.98,-9.5%

# Entries of single compounds, quoted from the list. Values in the order: MT1-MMP reporter	WNV protease inh	Hsc70 ATP site
# Cc1onc(-c2ccccc2Cl)c1C(=O)Nc1cccnc1 is listed with i	-0.05	7.9%
# Cc1ccc(NC(=O)N2CCC(C(=O)NCCC3=CCCCC3)CC2)cc1 is listed with i	1.5	2.7%
# CCS(=O)(=O)N1CCc2cc(OC)c(OC)cc2C1 is listed with i	0.55	5.7%

# New compounds follow
SMILES,MT1-MMP reporter,WNV protease inh,Hsc70 ATP site
CCN(CC)C(=O)c1sc2nc(-c3cccs3)cc(-c3cccs3)c2c1N,i,0.64,-8.4%
O=C(c1ccc2c(=O)n3c(nc2c1)CCCCC3)N1CCN(Cc2ccccc2)CC1,i,.,5.3%
O=C(Oc1ccccc1)c1ccc2nsnc2c1,i,.,4.4%
CCCn1c(N)c(C(c2ccc(OC)cc2)N2CCN(c3ccccc3)CC2)c(=O)[nH]c1=O (stereo unspecified),i,.,-4.3%
Cc1ccc(NC(=O)CS(=O)CC(=O)NCC2OCCc3ccccc32)c(C)c1 (stereo unspecified),i,0.15,-2.8%
C=CCN1C=CC(=C/C=C(/C#N)C(=O)OCC)C=C1,i,.,-216%
Cc1ccccc1NC(=O)CN1C(=O)COc2ccc(Cl)cc21,i,0.87,1.6%
Cn1cccc1C(=O)NC(=O)COC(=O)CC12CC3CC(CC(C3)C1)C2,i,.,3.6%
CCCCN1C(=O)C(O)(CC(=O)c2ccccc2OC)c2ccccc21 (stereo unspecified),i,-0.65,4.1%
CCOc1ccc(/C(O)=C2/C(=O)C(=O)N(CCN(CC)CC)C2c2ccco2)cc1 (stereo unspecified),i,-0.17,-10%
O=C(CSc1nnnn1-c1ccccc1)CSc1nnnn1-c1ccccc1,i,1.4,-5.7%
O=C(c1ccc(COc2ccc(F)cc2)o1)n1cc(Br)cn1,i,.,3.3%
O=C(COc1ccc2c(c1)OCO2)NC12CC3CC(CC(C3)C1)C2,i,0.9,-2.6%
COc1ccccc1N1CCN(c2cc(=O)n(-c3ccc(Cl)cc3)c(=O)[nH]2)CC1,i,1.7,-3.9%
Cc1nc2ccc(NC(=O)N3CCCCC3)cc2s1,i,-0.33,6.9%
CCOc1cc(/C=N/n2cnnc2)c(Br)cc1O,+,-1.2,-8.2%
COc1ccc(-c2nc(CS(=O)CC(=O)NCc3ccccn3)c(C)o2)cc1 (stereo unspecified),i,0.47,29%
CCOC(=O)C1CCCN(c2c(NCCCN(CC)c3cccc(C)c3)c(=O)c2=O)C1 (stereo unspecified),i,-1.2,-3.3%
O=C(OCC(O)CN1CCCCC1)C12CC3CC(CC(C3)C1)C2 (stereo unspecified),i,0.94,-4.4%
O=C(Nc1ccccc1)c1ccc2nc(-c3ccco3)c(-c3ccco3)nc2c1,i,-2.3,-7.0%
Cc1ccc(C(=O)NCc2ccc(Cl)cc2)o1,i,-0.47,2.1%
CCOc1cccc2cc(C(N)=O)c(=NCc3ccccc3)oc12,i,.,-21%
NC(=O)CN1C(=O)C2CCCCN2C(=O)c2ccccc21 (stereo unspecified),i,0.2,-3.9%
O=C(NCc1cccs1)c1cccnc1C(=O)O,i,-0.01,-1.3%
COc1ccc(-c2csc(NC(=O)c3ccco3)n2)cc1,i,.,7.0%
Cc1cc(C)cc(N(CC(=O)NC2CCCCC2)C(=O)CCC(=O)Nc2cc(C)ccn2)c1,i,0.2,-6.3%
O=C(CCNC(=O)Cn1ccc2ccccc2c1=O)NCCN1CCN(c2ccccc2F)CC1,i,0.35,-3.9%
Cc1nc(Nc2ccncc2)c2oc3ccccc3c2n1,i,.,11%
O=C(O)[C@@H]1CCCC[C@@H]1C(=O)N1CCc2ccccc2C1CN1C(=O)c2ccccc2C1=O (stereo partly specified),i,1.1,0.3%
Nc1nnc(CCN2C(=O)CSC2=O)s1,i,1.1,-4.8%
COc1ccc(C(=O)c2oc3ccccc3c2N)cc1,i,-0.35,-0.3%
COCCn1nnnc1C(c1ccc(C(F)(F)F)cc1)N1CCOCC1 (stereo unspecified),i,.,-4.2%
CC(C)NCCCOc1ccc(C(C)(C)c2ccccc2)cc1,i,.,-6.2%
Cc1ccc(NC(=O)c2ccc3ccccc3n2)nc1,i,-0.95,-0.6%
Cn1c(=O)c2c(nc(NCc3ccccc3)n2Cc2ccc(F)cc2)n(C)c1=O,i,0.18,2.9%
O=C(NCC1CCCO1)c1csc2c1CCCC2 (stereo unspecified),i,-0.5,-1.1%
O=C(CCc1nc2ccccc2c(=O)[nH]1)N1CCN(C/C=C/c2ccccc2)CC1,i,0.37,3.7%
CNc1ccc(OC(F)F)cc1C(=O)c1ccccc1,i,2.1,2.3%
COc1ccc(C(C#N)(CCC#N)CCC#N)cc1OC,i,0.04,-2.1%
O=C(c1cc(=O)[nH]c2ccccc12)N1CCN(S(=O)(=O)c2ccc3ccccc3c2)CC1,i,.,-2.1%
COc1ccc(C)cc1NC(=O)CSc1nc(SC)ns1,i,-0.72,-1.2%
COCc1cc(=O)[nH]c(SCC(=O)Nc2ccccc2)n1,i,-0.64,-3.4%
CCCC(c1nnnn1Cc1ccco1)N1CCN(c2cc(Cl)ccc2C)CC1 (stereo unspecified),i,-0.37,-3.3%
COc1cc(OC)c(CN2CCCCCCC2)cc1Br,i,.,-2.3%
C[C@]12CC[C@@H]3c4ccc(OS(=O)(=O)O)cc4CC[C@H]3[C@@H]1CCC2=O,i,-0.12,-0.9%
c1ccc(Cn2nnc3c(NCc4ccc5c(c4)OCO5)nc(C4CC4)nc32)cc1,i,-0.57,-1.5%
COc1ccc(Cl)cc1N1C(=O)C2CCCN2C1c1cccc(F)c1 (stereo unspecified),i,0.22,0.4%
CCCCNC(=S)NNC(=O)c1csc(CC)c1,i,.,6.5%
COc1ccc(-n2c(Cc3cccn3C)nnc2SCC(=O)Nc2nccs2)cc1,i,1.6,0.1%
C=CCNCc1cccn1-c1ccccc1,i,0.21,-9.1%
c1c2c(cc3sc(N4CCOCC4)nc13)OCCO2,+,1.9,-5.4%
Cc1ccc(CNC(=O)CNS(=O)(=O)c2cccc3nsnc23)cc1,i,-1.1,3.9%
Cc1cc(NC(=O)c2ccco2)ncc1NC(=O)Cc1ccccc1,i,0.58,-4.8%
N#CCCN(CC(=O)O)S(=O)(=O)c1ccccc1,i,0.8,2.4%
COc1cccc(N2CCN(c3ncnc4c3[nH]c3ccccc34)CC2C)c1 (stereo unspecified),i,0.56,2.1%
O=C(Nc1ccc(Nc2ccccc2)cc1)N1CCOCC1,i,-1.1,4.8%
CC1(c2ccc(OC(F)F)cc2)NC(=O)N(CC(=O)NC2CCCCC2)C1=O (stereo unspecified),i,0.25,-1.6%
COc1ccc(N(CC(=O)N2CCc3ccccc3C2)S(=O)(=O)c2c(C)nn(C)c2C)cc1,i,1.2,3.2%
COC(=O)C1C2C=CC3(CN(C(C)c4ccc(OC)cc4)C(=O)C13)O2 (stereo unspecified),i,0.27,0.8%
COCC(=O)Nc1nc2n(n1)C(c1ccc(Cl)cc1)CC(c1ccc(OC)cc1)N2 (stereo unspecified),i,0.87,2.0%

# (listing goes on)
SMILES,MT1-MMP reporter,WNV protease inh,Hsc70 ATP site
O=C1CCCC2=C1C1c3ccccc3C(=O)N1c1ccc(C(=O)c3ccccc3)cc1N2 (stereo unspecified),i,.,2.1%
Cc1ccc2oc(=O)c3cnn(CC(=O)NC4CCC(C)CC4)c3c2c1 (stereo unspecified),i,-0.16,-0.3%
O=C(c1cccnc1Nc1ccc2c(c1)CCC2)N1CCOCC1,i,0.04,-4.8%
CC1(C)CSC(=S)N1S(=O)(=O)c1ccccc1,i,-0.17,3.4%
CCOc1ccc(C2N(c3cc(Cl)ccc3OC)C(=O)C3CCCN32)cc1OC (stereo unspecified),i,-0.9,-3.9%
CCc1ccccc1NC1=NCC(=O)N1Cc1ccc(OC)cc1,i,-0.18,0.8%
CCSc1nnc(NC(=O)COc2ccccc2)s1,i,.,-0.7%
CN(C1CCCCC1)S(=O)(=O)c1ccc(C(=O)O)cc1,i,-0.15,-5.3%
